From PubChem BioAssay
ClpP mod – qHTS Assay for Activators of ClpP | Potency, µM (series often up to 57.5 µM), inactives show top-dose activity change, negative = active | actives 1.9% (n = 340,000) | ATP-dependent Clp protease proteolytic subunit (Bacillus subtilis (strain 168)), P80244 | AID 651965, 2013 | purified B. subtilis ClpP, FRET peptide cleavage, 20 min; active = well fitted falling curve with a large enough effect; inconclusive = small, poorly fitted or top-dose-only effect; inactive = no such curve, though single readings can be large or run the other way; also: the source files actives as falling curves though it sought activators and does not explain the sign; nearly all actives have a fitted effect of over 65% in size; many hits overshoot -100%
Target sequence (P80244 whole entry, looked up): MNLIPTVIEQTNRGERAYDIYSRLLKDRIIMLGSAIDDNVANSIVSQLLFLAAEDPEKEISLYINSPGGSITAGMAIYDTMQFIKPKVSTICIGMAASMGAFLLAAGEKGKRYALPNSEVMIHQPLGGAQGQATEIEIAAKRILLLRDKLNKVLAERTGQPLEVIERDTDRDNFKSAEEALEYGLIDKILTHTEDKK
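FRET quenching reversal measured ClpP activation: 10 microg/mL B. subtilis ClpP at pH 8 with the FRET-FV decapeptide, read at 430 nm after 320 nm excitation. The 20-min minus 0-min signal was scaled between DMSO/no-enzyme wells and ADEP (5.8 microM final).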
An asterisk follows results filed as active; ? = inconclusive. Potency is read from the fitted curve at half-maximal effect. Only part of the results is shown; rates above refer to the full screens.

No. | SMILES | ClpP mod
1 | Cc1ccc(-n2ncc(C(=O)NCCN3CCN(C)CC3)c2C2CCN(C(=O)OC(C)(C)C)CC2)c(C)c1 | -3.2%
2 | Cc1ccc(CNC(=O)CCc2c(C)nc3c4c(C)cc(C)nc4nn3c2C)cc1 | 4.1%
3 | Cc1ccc(C)c2c1NC(C(=O)O)C1CC=CC21 (stereo unspecified) | -18%
4 | Cc1c(Cl)cccc1NC(=O)Nc1ccc2snnc2c1 | -2.4%
5 | COc1ccc(C(=O)C2C(=O)C(=O)N(Cc3ccco3)C2c2cccs2)cc1 (stereo unspecified) | -3.4%
6 | CCc1ccc(NC(=O)C(Cc2ccccc2)NS(=O)(=O)c2ccc3c(c2)c(=O)n(C)c(=O)n3C)cc1 (stereo unspecified) | -13%
7 | CCOC(=O)c1c(C)[nH]c(C)c1S(=O)(=O)NCC(=O)Nc1ccc(CC)cc1 | -0.5%
8 | CCc1cccc2c(-c3ccc(F)cc3)nc(SCC(=O)Nc3ccccc3)nc12 | -1.8%
9 | CCCOC(=O)c1ccc(NC(=O)Cn2nnc3sc4c(c3c2=O)CCC(C(C)(C)C)C4)cc1 (stereo unspecified) | -1.1%
10 | COC(=O)c1c(-c2cccs2)csc1NC(=O)c1cccc(Cl)c1 | -14%

The last four compounds of the section above open the next one:
No. | SMILES | ClpP mod
7 | CCOC(=O)c1c(C)[nH]c(C)c1S(=O)(=O)NCC(=O)Nc1ccc(CC)cc1 | -0.5%
8 | CCc1cccc2c(-c3ccc(F)cc3)nc(SCC(=O)Nc3ccccc3)nc12 | -1.8%
9 | CCCOC(=O)c1ccc(NC(=O)Cn2nnc3sc4c(c3c2=O)CCC(C(C)(C)C)C4)cc1 (stereo unspecified) | -1.1%
10 | COC(=O)c1c(-c2cccs2)csc1NC(=O)c1cccc(Cl)c1 | -14%
11 | Cc1c(NC(=O)c2nc3ccccc3n(C)c2=O)cccc1[N+](=O)[O-] | 0.9%
12 | Cc1ccc2c(c1)c1c(c(=O)n(-c3cccc(Cl)c3)c(=O)n1CC(=O)Nc1c(C)cccc1C)n2C | 3.9%
13 | CCN1CCN(c2ccc(/C=C/c3ccnc4ccccc34)cc2)CC1 | -1.7%
14 | CCOc1ccccc1NC(=O)c1c(NC(=O)C(C)Oc2cccc(Cl)c2)sc2c1CCCCC2 (stereo unspecified) | -2.2%
15 | O=S(=O)(c1ccc2c(c1)OCCO2)N1CCN(c2nc(-c3ccccc3)nc3ccccc23)CC1 | ?
16 | COc1ccc(CCC(=O)N2CCc3c([nH]c4ccccc34)C2c2ccc(F)cc2)cc1 (stereo unspecified) | -3.5%
17 | Cc1ccc(NC(=O)N2CCC(n3c(C)nc4cccnc43)CC2)c(Cl)c1 | 3.1%
18 | CC1CCN(c2ccc(-c3nc(C(C)C)no3)cc2[N+](=O)[O-])CC1 | 0.3%
19 | COc1ccc(CCNC(=O)c2cc(S(=O)(=O)N3CCCC(C)C3)cn2C)cc1OC (stereo unspecified) | -0.7%
20 | Cn1cc(S(=O)(=O)N2CCCCC2)cc1C(=O)Nc1ccc(OC(F)(F)F)cc1 | 0.9%
21 | COc1ccc(-c2c3c(nc4sc(C(=O)Nc5ccccc5F)c(N)c24)CC(C)(C)CC3=O)cc1 | 8.5%
22 | Clc1cccc(-c2ccc(CNCCSc3nnnn3-c3ccccc3)o2)c1 | -27%
23 | CC1CCN(C(=O)c2ccc3c(c2)N(Cc2ccccc2)C(=O)c2ccccc2S3(=O)=O)CC1 | 1.1%
24 | CCOc1ccccc1NC(=O)C(c1ccccc1)N1Cc2ccccc2C1=O (stereo unspecified) | 0.9%
25 | CC(=O)c1cccc(NC(=O)CSc2nc3ccccc3nc2Cc2ccc(F)cc2)c1 | 0.4%
26 | COc1cc(OC)c(/C=C/c2nc3ccccc3o2)c(OC)c1 | -0.5%
27 | CC(=O)Nc1cc(O)c2nonc2c1O | -8.6%
28 | CCOC(=O)c1c(C)oc2ncnc(Nc3ccc(CC)cc3)c12 | 1.5%
29 | Cc1cc(C)cc(NC(=O)C(=O)NCC(c2cccnc2)N2CCc3ccccc32)c1 (stereo unspecified) | 0.6%
30 | CC1Cc2cc(S(=O)(=O)N(Cc3ccccc3)C(C)C)ccc2N1C(=O)C1CCC1 (stereo unspecified) | -0.9%
31 | COc1ccc(CCNC(=O)C2c3ccccc3C(=O)N2Cc2ccccc2)cc1OC (stereo unspecified) | -3.3%
32 | CCc1ccc2oc(-c3cccc(NC(=O)COc4ccccc4Cl)c3)nc2c1 | ?
33 | COC(=O)c1ccc(NC(=O)NC(C)c2c(-n3cccc3)sc(C)c2C)cc1 (stereo unspecified) | 1.6%
34 | COc1ccc(-c2nc(SCC(=O)NC(C)CCc3ccccc3)n[nH]2)cc1 (stereo unspecified) | -0.9%
35 | O=C(c1cccc([N+](=O)[O-])c1)N1c2ncnn2C2(CCCCC2)[C@@H]2CCCC[C@@H]21 | 0.2%
36 | CCOc1cccc(NC(=O)C2CC(=O)N(C)C(=Nc3cccc(OC)c3)S2)c1 (stereo unspecified) | -1.1%
37 | CCCCn1c(=N)c(S(=O)(=O)c2ccccc2)cc2c(=O)n3cccc(C)c3nc21 | 1.1%
38 | Cc1cn2c(=O)cc(COC(=O)c3cccc(NC(=O)c4ccccc4Cl)c3)nc2s1 | -17%
39 | COc1ccc(OC)c(NC(=O)CSc2ncc3c(n2)-c2ccccc2N(C)S3(=O)=O)c1 | -5.7%
40 | COc1ccc2c(c1)c1c(c(=O)n(-c3ccc(C)cc3)c(=O)n1CC(=O)Nc1cc(C)ccc1C)n2C | -2.9%

Random excerpt: two entries already listed.
No. | SMILES | ClpP mod
35 | O=C(c1cccc([N+](=O)[O-])c1)N1c2ncnn2C2(CCCCC2)[C@@H]2CCCC[C@@H]21 | 0.2%
36 | CCOc1cccc(NC(=O)C2CC(=O)N(C)C(=Nc3cccc(OC)c3)S2)c1 (stereo unspecified) | -1.1%

(continued)
No. | SMILES | ClpP mod
41 | Cc1cc(C)c(NC(=O)CSc2nc3c([nH]c4ccccc43)c(=O)n2C)c(C)c1 | -2.3%
42 | COc1cc2nc(N3CCCCC3)nc(NC3CCN(C)CC3)c2cc1OC | 3.6%
43 | Cc1ccc(-c2cn3c4c(=O)n(C)c(=O)n(C)c4nc3n2-c2cccc(Cl)c2)cc1 | -5.8%
44 | COc1ccc(NCc2cc3cc4c(cc3n(CC(=O)Nc3cc(C)cc(C)c3)c2=O)OCO4)cc1 | 24%
45 | COc1ccc(CCNc2ncnc3c2c(-c2ccccc2)cn3-c2ccc(Cl)cc2)cc1OC | 22µM*
46 | CCOc1ccc(CNCCSc2nnnn2C)cc1OC | -0.9%
47 | COc1ccc(CCn2c(=O)c3cccnc3n(CC(=O)Nc3c(C)cc(C)cc3C)c2=O)cc1OC | ?
48 | Cc1c(CC(=O)NCc2ccccc2Cl)c(=O)oc2cc(O)ccc12 | 4.1%
49 | CCCN1CCN(CCCNC(=O)c2ccc3nc(Cc4ccccc4)oc3c2)CC1 | -3.2%
50 | COc1cccc(C(=O)Nc2nc(-c3nnn(-c4cc(C)ccc4C)c3C)ns2)c1 | -2.1%
51 | COc1ccc(-c2nc3sc(CCNC(=O)C(=O)Nc4c(C)cccc4C)c(C)n3n2)cc1 | -0.3%
52 | O=C(CN1C(=O)COc2ccc(S(=O)(=O)N3CCOCC3)cc21)N1CCN(c2cccc(Cl)c2)CC1 | -1.4%
53 | COc1ccc(-c2noc(CSc3nnc(-c4ccncc4)n3-c3ccc(C)cc3)n2)cc1OC | 1.2%
54 | Cn1nnnc1SCCNCc1cc(Br)ccc1OCc1ccccc1Cl | 0.4%
55 | COc1ccc(CCNC(=O)Cn2nc(C)n3c(cc4occc43)c2=O)cc1OC | 1.0%
56 | COc1ccccc1NC(=O)Cn1nnc(C(=O)Nc2ccccc2Br)c1N | -0.4%
57 | Cc1ccc(C)c(N2CCN(C(=O)CS(=O)(=O)c3cccc4nsnc34)CC2)c1 | -5.7%
58 | CCCCCOC(=O)CSc1nc2sc3c(c2c(=O)n1-c1ccccc1)CC(C)(CC)OC3 (stereo unspecified) | -3.0%
59 | O=C(OCc1cc(=O)n2nc(C3CC3)sc2n1)c1ccc(NC(=O)c2ccccc2F)cc1 | 10%
60 | CC(C)NC(=O)C1CCCN(c2ncnc3c2nc2n3CCCCC2)C1 (stereo unspecified) | -1.1%

Part of the list above in order of molecular weight, low to high.
No. | SMILES | ClpP mod
2 | Cc1ccc(CNC(=O)CCc2c(C)nc3c4c(C)cc(C)nc4nn3c2C)cc1 | 4.1%
41 | Cc1cc(C)c(NC(=O)CSc2nc3c([nH]c4ccccc43)c(=O)n2C)c(C)c1 | -2.3%
43 | Cc1ccc(-c2cn3c4c(=O)n(C)c(=O)n(C)c4nc3n2-c2cccc(Cl)c2)cc1 | -5.8%
53 | COc1ccc(-c2noc(CSc3nnc(-c4ccncc4)n3-c3ccc(C)cc3)n2)cc1OC | 1.2%

(list continues)
No. | SMILES | ClpP mod
61 | CN1CCCc2ccccc21 | -6.2%
62 | Cc1cc(N2CCOCC2)nc2ccc(NC(=O)C3CCCCC3)cc12 | 4.8%
63 | CCc1ccc(NC(=O)c2ccc(F)c(S(=O)(=O)NCc3ccc(Cl)c(Cl)c3)c2)cc1 | 13%
64 | CCc1ccccc1NC(=O)Cn1c(=O)n(CC2CCC(C(=O)NCCc3ccccc3)CC2)c(=O)c2ccccc21 (stereo unspecified) | -4.5%
65 | CCN1CCN(CCCNC(=O)c2cc3c(=O)n(C)c4ccccc4c3s2)CC1 | 4.4%
66 | CCc1ccc(-n2nc(C)c3c(C)cc(=O)n(CC(=O)Nc4ccc(F)cc4C)c32)cc1 | -6.3%
67 | CCCCOc1ccccc1NC(=O)CC1Sc2ccccc2NC1=O (stereo unspecified) | 1.9%
68 | O=c1oc2c3c(ccc2c2ccccc12)OCN(Cc1ccc(Cl)cc1)C3 | -2.4%
69 | Cc1ccc(S(=O)(=O)N(CC(=O)Nc2ccc(F)cc2F)Cc2ccc(F)cc2)cc1 | -4.8%
70 | CCOc1ccc(NC(=O)Cn2cnc3c(oc4ccccc43)c2=O)cc1 | -1.7%

Values in list order from the entries so far:
ClpP mod, compounds 64 to 68, in order: -4.5%, 4.4%, -6.3%, 1.9%, -2.4%

New compounds follow
No. | SMILES | ClpP mod
71 | Cc1cc(C)c(Nc2nc3ccccc3n3c(C)nnc23)c(C)c1 | -0.2%
72 | Cc1ccc(NCc2cc3cc4c(cc3n(CC(=O)Nc3ccc(F)cc3F)c2=O)OCCO4)cc1 | -0.5%
73 | Cc1cc(C)cc(NS(=O)(=O)c2ccc3c(c2)OCC(C(=O)N2CCCC2)O3)c1 (stereo unspecified) | 0.3%
74 | Cc1ccc(CN2CCCn3nc(C(=O)NCCc4cccc(C)c4)cc3C2=O)cc1 | -1.5%
75 | COc1ccc(Cn2cc(C(=O)c3ccc(OC)cc3)c(=O)c3cc4c(cc32)OCCO4)cc1 | 2.0%
76 | Cc1nn2c(-c3ccccc3)cc(-c3ccccc3)nc2c1-c1ccc(Cl)cc1 | -0.5%
77 | O=C1CC(c2ccccc2)Sc2ccccc2N1Cc1ccc(F)cc1 (stereo unspecified) | 0.3%
78 | CCN(Cc1ccccc1)C(=O)Cn1c(=O)oc2cc(S(=O)(=O)N3CCCCCC3)ccc21 | -0.2%
79 | COc1ccc(Cn2c(SCc3ccc(C(=O)NCc4ccccc4F)cc3)nc3cccnc32)cc1 | 32µM*
80 | COc1ccc(C)cc1NC(=O)N1CCN(S(=O)(=O)c2ccc3c(ccn3C)c2)CC1 | -3.8%
81 | CCCCOc1c(Cl)cc(C(=O)N(Cc2ccc(C)o2)C2CCS(=O)(=O)C2)cc1Cl (stereo unspecified) | 0.9%
82 | CSc1ncc(Cl)c(C(=O)Nc2c(C(=O)c3ccc(C)c(F)c3)oc3ccccc23)n1 | 0.3%
83 | CCc1ccc(-n2nc(CO)c(C(=O)NCc3cccs3)n2)cc1 | -19%
84 | Cn1c(=O)c2sccc2n2c(CCC(=O)N3CCN(c4ccccc4)CC3)nnc12 | -1.2%
85 | COc1ccc(CCNC(=O)c2cc3c(=O)n4ccccc4nc3n2C)cc1 | ?
86 | CCc1cccc(NC(=O)CN2CCCN(Cc3cccc(C)c3)S2(=O)=O)c1 | 0.8%
87 | CCC(=O)N1CCc2cc(Br)cc(S(=O)(=O)CCC(=O)NCCc3ccccc3Cl)c21 | 1.8%
88 | CC(C)CCSc1nnc2n(-c3ccccc3)c(=O)c3c4c(sc3n12)CC(C)CC4 (stereo unspecified) | -1.7%
89 | Cc1cc(=O)n2nc(N3CCC(C(=O)NCCCOC(C)C)CC3)sc2n1 | -1.4%
90 | COC(=O)c1ccccc1NC(=O)NCc1ccc2c(c1)CCN2C(=O)c1ccccc1 | -13%
91 | CCc1cccc(-n2c(=O)c3cccnc3n2CC(=O)Nc2c(C)cc(C)cc2C)c1 | 4.1%
92 | O=C(Nc1c(C(=O)Nc2cccc(C(F)(F)F)c2)oc2ccccc12)c1cc(=O)c2ccccc2o1 | -9.1%
93 | Cc1cccc(CCNC(=O)CCc2c(C)nc3c(-c4ccc(F)cc4)c(C)nn3c2C)c1 | -0.5%
94 | Cc1cccc(-n2ncc(C(=O)Nc3ccc4c(c3)OCO4)c2C2CCN(C(=O)OC(C)(C)C)CC2)c1 | -1.4%
95 | COc1cccc(/C=C/c2nc(C#N)c(N3CCC(C(N)=O)CC3)o2)c1 | 3.4%
96 | CCNC(=O)Cc1ccc(NC(=O)N2CCCCc3ccccc32)cc1 | 0.9%
97 | CCc1ccc(S(=O)(=O)c2nnn3c2nc(NC2CCCCCC2)c2sccc23)cc1 | -13%
98 | O=C(NCC1CCCO1)c1c[nH]c2ccc(S(=O)(=O)Nc3cccc(C(F)(F)F)c3)cc2c1=O (stereo unspecified) | -14%
99 | COCCn1c(SCC(=O)Nc2cccc(C)c2C)nc2c(oc3ccccc32)c1=O | 0.4%
100 | Cc1nc(C)c(-c2ccc(SCC(=O)Nc3ccc(Cl)c(Cl)c3)nn2)s1 | -3.8%
101 | CC(=O)N1CCc2cc(Br)cc(S(=O)(=O)N3CCC(C(=O)Nc4cccc(C)c4C)CC3)c21 | -2.1%
